# LASV entry inh: Lassa virus entry inhibition; Lassa virus pseudotype entry inhibition, cell reporter; control for the full effect not named in the record; AID 540256; Potency, µM (doses to about 37.9 µM), for inactives: at the highest dose activity change, negative = inhibition, most hits filed as inhibitors; 300,000 tested, 1.2% active; active means well fitted inhibition curve with a large enough effect; inconclusive means small, poorly fitted or top-dose-only effect, or effect the other way; inactive means flat fitted curve, though single readings scatter; tested in HEK293 cells; note: % is set by controls: 0 for no effect and ±100 for the full control effect; nearly all actives have a fitted effect of over 50% in size; luciferase read-out
# MARV entry inh: Marburg virus entry inhibition; Marburg virus pseudotyped entry inhibition, cell reporter; control for the full effect not named in the record; about a third of the inactives were read at about 46 µM; Potency, µM (series often up to 37.8 µM), without a hit: at the top dose activity change, negative = inhibition, actives largely listed as inhibitors; 300,000 tested, 1.8% active; AID 540276; active = well fitted inhibition curve with a large enough effect; inconclusive = small, poorly fitted or top-dose-only effect, or effect the other way; inactive = flat fitted curve, though single readings scatter; tested in HEK293 cells; about a fifth of its hits are not listed in these tables; note: % is set by controls: 0 for no effect and ±100 for the full control effect; luciferase read-out
# 2A StopGo: FMDV 2A StopGo reporter, luciferase signal; 410,000 tested, 1.2% active; human cells with a luciferase reporter of 2A StopGo recoding; control for the full effect not named in the record; Potency, µM (top dose mostly 57.9 µM), without a hit: at the top dose signal change, negative = less light; active = well fitted falling curve with a large enough effect; inconclusive = small, poorly fitted or top-dose-only effect; inactive = no such curve, though single readings can be large or run the other way; tested in HEK293T cells; note: % is set by controls: 0 for no effect and ±100 for the full control effect; nearly all actives have a fitted effect of over 45% in size; luciferase light after 4 h
# Cruzain Triton: inhibitors of Trypanosoma cruzi cruzain with detergent. P25779. purified cruzain, Z-FR-AMC fluorescence, 0.01% Triton. Potency, µM, for the others: max response, negative = inhibition, usual class: inhibitors. 200,000 tested, 0.43% active. AID 1478;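 note: plate controls were neutral wells for no effect and buffer without enzyme for full effect; nearly all actives have a fitted effect of over 40% in size; top concentration of the series not given in the record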
# Target sequence (P25779 123-467 limits assumed): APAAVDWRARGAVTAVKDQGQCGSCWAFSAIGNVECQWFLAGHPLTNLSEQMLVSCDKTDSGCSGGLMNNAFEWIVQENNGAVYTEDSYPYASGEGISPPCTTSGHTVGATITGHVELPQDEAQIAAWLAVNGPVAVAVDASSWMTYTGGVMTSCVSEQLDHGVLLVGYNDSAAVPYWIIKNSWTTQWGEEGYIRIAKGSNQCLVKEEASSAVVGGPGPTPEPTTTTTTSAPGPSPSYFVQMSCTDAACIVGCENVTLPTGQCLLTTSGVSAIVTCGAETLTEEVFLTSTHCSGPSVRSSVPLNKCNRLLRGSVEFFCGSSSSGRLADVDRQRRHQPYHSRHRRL
#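 Z-FR-AMC hydrolysis (2 uM substrate) by cruzain (1.5 nM) monitored kinetically at ex 360/em 450 nm after 15 min room-temperature compound exposure; 0.01% Triton X-100, pH 5.5, 5 mM DTT.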
# Cruzain noTriton: blocks cruzain activity in detergent-free assay | AID 1476 | purified cruzain, Z-FR-AMC fluorescence, no detergent | Potency, µM, for the others: max response, negative = inhibition, most hits filed as inhibitors | 200,000 tested, 2.3% active;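 note: plate controls were enzyme without inhibitor for no effect and buffer without enzyme for full effect; nearly all actives have a fitted effect of over 40% in size; top concentration of the series not given in the record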
#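 Detergent-free condition (0.00005% Triton X-100) in acetate buffer pH 5.5 with DTT. 1.5 nM enzyme and compound were pre-mixed 15 min, then 2 uM Z-FR-AMC substrate added; reaction progress from fluorescence change between first and third reads (60 s).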
# RE007 growth inh: less growth of the S. pombe RE007 Vpr strain; Potency, µM (series often up to 92.2 µM), for the others: at the top dose activity change, negative = less growth; AID 651644; S. pombe RE007 Vpr strain, BacTiter-Glo ATP luminescence, 24 h; control for the full effect not named in the record; 360,000 tested, 0.21% active; active = well fitted falling curve with a large enough effect; inconclusive = small, poorly fitted or top-dose-only effect; inactive = no such curve, though single readings can be large or run the other way;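 note: % is set by controls: 0 for no effect and ±100 for the full control effect; nearly all actives have a fitted effect of over 50% in size; the assay follows cell death caused by Vpr and the record does not say whether a fall means rescue or toxicity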
#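 Fission yeast RE007 carrying one integrated HIV-1 vpr copy, seeded at OD 0.01 in PMG+AL medium with 23 nL pinned compound. Grown 24 h at 30 degrees; viability read by BacTiter-Glo luminescence after 5 min.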
# SARS PLpro yeast: inhibitors of SARS-CoV papain-like protease in yeast. 330,000 tested, 0.19% active. S. cerevisiae expressing SARS-CoV PLpro, growth rescue; control for the full effect not named in the record. Potency, µM (doses to about 32.9 µM), for the others: at the top dose activity, positive = growth rescue; active means well fitted rising curve with a large enough effect; inconclusive means small, poorly fitted or top-dose-only effect; inactive means no such curve, though single readings can be large or run the other way; note: 0% is about no effect; nearly all actives have a fitted effect of over 55% in size; growth read by luminescence after 48 h
# NS1 function inh: influenza NS1 inhibition; Potency, µM (top dose mostly 46.1 µM), for the others: at the highest dose activity, positive = more growth; 270,000 tested, 0.4% active; S. cerevisiae slowed by influenza A NS1, growth recovery by OD600; active means well fitted rising curve with a large enough effect; inconclusive means small, poorly fitted or top-dose-only effect; inactive means no such curve, though single readings can be large or run the other way; note: nearly all actives have a fitted effect of over 50% in size
#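 In this qHTS, NS1 from influenza A is expressed in budding yeast, where it slows growth. Cells are switched from glucose to 2% galactose medium (pH 6.0, -URA), treated with compound, and growth recovery is read at OD600.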
# * = called active by the depositor; u = inconclusive; x = no result given; [ ] = another dose, or the depositor's remark. Unless noted, calls come from the whole dose curve; as a rule, active = well fitted curve in the direction sought with a large enough effect; inconclusive = small, poorly fitted or top-dose-only effect, or another doubt; inactive = no such curve, though single readings can be large; an effect the other way counts as inactive or inconclusive. Potency is the fitted concentration of half-maximal effect.
SMILES,LASV entry inh,MARV entry inh,2A StopGo,Cruzain Triton,Cruzain noTriton,RE007 growth inh,SARS PLpro yeast,NS1 function inh
Cc1cc(C)cc(NC(=S)Nc2ccccn2)c1,u,-12.2%,52.2%[activator],-9.4%,-8.0%,-5.7%,3.16µM*,-11.8%
COc1ccc(OC)c2sc(N(Cc3cccnc3)C(=O)c3ccco3)nc12,12.8%[46.1 µM],x,-22.2%,-0.6%,3.3%,x,x,x
Cc1ccc(NC(=O)/C=C/c2ccc3c(c2)OCO3)nc1,4.9%,26.7%,14.1%,-2.0%,-4.2%,7.2%,u,7.7%
CCc1ccc(NC(=O)C(C)OC(=O)c2ccc(NS(=O)(=O)c3ccc(C)c([N+](=O)[O-])c3)cc2)cc1 (stereo not drawn),u,u,-16.9%,-0.9%,15.8µM*,9.9%,1.4%,-35.5%
CC(C)[C@H](NC(=O)N1c2ccccc2NC(=O)[C@@H]1C(C)C)C(=O)N1CCC(C(=O)O)CC1,x,x,4.6%,x,x,-3.9%,10.0%,21.5%
CC1CN(O)C2CCc3nonc3C12O (stereo not drawn),0.8%,6.9%,-2.7%,12.0%,-0.3%,-13.2%,-25.4%,u
Cc1cc(C(=O)N/N=C/c2ccc(N3CCOCC3)cc2)c(C)o1,-11.2%,7.7%[46.1 µM],18.1%,x,x,-21.5%,-3.1%,-8.0%
COc1ccc(/C=C/C(=O)Nc2ccc3c(c2)CCC3)cc1OC,-19.2%,-38.1%,-28.6%,-10.9%,68.0%,x,-40.8%,-14.2%
CC(C)CNC(=O)c1cc(-c2ccc(Cl)c(Cl)c2)on1,u,5.0%,48.1%[activator],7.8%,12.6µM*,-0.8%,5.6%,-6.4%
Cc1cc(OCc2cc(C(=O)NCCN3CCCCC3CO)no2)cc(C)c1Cl (stereo not drawn),u,u,-19.3%,x,x,0.8%,1.7%,4.3%
Fc1ccc(CSc2nncn2NCc2ccccc2)cc1,-17.1%,3.0%,-10.6%,-0.4%,-12.3%,2.4%,9.3%,-14.4%
COc1cccc(-c2nnc(NC(=O)c3ccc4ncsc4c3)o2)c1,1.2%,10µM*,3.3%,-5.3%,9.3%,-6.9%,u,24.3%
COc1ccc(CCNC(=S)NC(=O)c2ccc(Br)cc2)cc1OC,x,x,-25.6%,x,x,-27.4%,-0.1%,0.4%
COc1cc2[nH]c(=O)n(CCCC(=O)NC3CCCCC3)c(=O)c2cc1OC,u,x,15.2%,x,x,0.9%,-3.1%,-4.4%
Cc1ccc(OCC(=O)N(Cc2ccccc2)C(C)C)c([N+](=O)[O-])n1,-7.5%,2.6%,-18.8%,-2.6%,-7.3%,-0.4%,-3.6%,-2.0%
CSc1nnc([C@@H]2CCCN2C(=O)OC(C)(C)C)o1,u,-10.2%,0.2%,x,x,0.9%,-0.5%,x
CC(=O)c1cccc(Nc2cc(C)nc3nc(Cc4ccccc4)nn23)c1,u,-1.5%[46.1 µM],-23.5%,-1.1%,5.4%,x,x,x
O=C(NC(=S)Nc1ccc2oc(=O)ccc2c1)c1cccc(Cl)c1,3.1%,-18.3%[46.1 µM],-8.7%,x,x,-0.7%,-15.9%,1.7%
CC1=C/C(=N\NC(=O)c2ccc(O)cc2)CC1,-17.6%,u,5.1%,1.2%,-13.5%,3.3%,-0.1%,15.8%
O=C(NC(=S)N1CCN(c2ccccc2)CC1)c1c(F)cccc1F,-8.5%[46.1 µM],5.3%[46.1 µM],-3.7%,x,x,-15.0%,1.8%,1.2%
CCOC(=O)c1c(C)[nH]c(C)c1C(=O)CSc1nc2ccccc2c(=O)n1-c1ccc(Cl)cc1,u,u,0.0%,-6.3%,10.7%,-3.6%,3.0%,u
Cc1ccc2nc(SCC(=O)Nc3c(F)cccc3F)[nH]c2c1,-18.7%[46.1 µM],u,7.2%,x,x,-2.4%,-0.4%,x
Cc1cc(C)cc(OCc2ccc(C(=O)N3N=C(C(F)F)CC3(O)C(F)F)o2)c1 (stereo not drawn),-12.8%,u,-18.7%,-5.4%,-7.2%,1.9%,7.7%,10.7%
CNc1oc(/C=C/c2cccc(OC)c2)nc1C#N,x,x,32.6%[activator],x,x,-0.1%,-4.6%,-3.4%
CC(C)(C)CC(=O)Nc1ccc(-c2nnc3n2CCCCC3)cc1,x,x,4.4%,x,x,7.3%,-2.6%,-0.9%
CCOC(CNCc1cc(C)c2[nH]c3ccccc3c2c1C)OCC,u,u,u,x,x,2.0%,x,x
CC(C)(C)c1ccc(/C=C/C(=O)Nc2cccnc2)cc1,u,u,-25.8%,x,x,-14.1%,-3.2%,-37.0%
Cc1ccnc(N2CCC(C(=O)Nc3ccc4c(c3)CCC4)CC2)n1,1.5%,-17.2%,-8.0%,0.2%,2.7%,1.3%,4.6%,2.3%
CN1C(=O)C(=O)N(CC(=O)N2CCc3ccccc32)C1=O,-14.4%,u,-15.9%,3.1%,-12.5%,7.3%,4.2%,8.3%
COc1ccc(NC(=O)Cn2nnc(C(=O)NCc3ccc(C)cc3)c2N)cc1Cl,x,x,-8.6%,x,x,12.1%,8.8%,5.6%
O=C(Cn1ccc2ccccc2c1=O)NCCC(=O)N1CCCCC1,-2.6%[46.1 µM],-0.4%[46.1 µM],-9.2%,x,x,4.8%,0.7%,-2.3%
CC1(C)N=C(N)N=C(N)N1c1ccc(Oc2ccc(Cl)cc2)c(Cl)c1,u,u,-23.6%,x,x,1.6%,-1.8%,-4.2%
CCCCC(=O)NC(c1ccccc1OC)c1ccc2cccnc2c1O (stereo not drawn),x,x,-16.0%,x,x,-25.8%,u,-46.6%
COc1ccccc1NC(=O)C1(C)Cc2ccccc2C(=O)O1 (stereo not drawn),x,x,6.8%,-4.7%,-1.6%,21.5%,2.0%,3.7%
Cc1ccc(SCC(=O)Nc2ccc(F)cc2[N+](=O)[O-])cc1C,u,-3.5%,-9.7%,-5.3%,-9.3%,25.6%,3.1%,-13.3%
S=C1NCN(C2CCCCC2)CN1Cc1ccccc1,u,-3.1%,9.6%,-0.2%,0.0%,-9.7%,22.8%,9.1%
CCCCc1ccc(NC(=O)C2CCCO2)cc1 (stereo not drawn),-26.0%,-0.8%,31.0%[activator],1.1%,3.5%,-7.4%,-6.1%,0.6%
O=C(Nc1cccc(Cl)c1)c1cc2c(=O)n3ccccc3nc2s1,x,x,-1.9%,x,x,-10.1%,-1.2%,-12.2%
Fc1ccc(-c2nnn(Cc3ccc(F)cc3Cl)n2)cc1,16.7%,-1.1%,53.3%[activator],x,x,-10.0%,-4.0%,-6.8%
c1ccc2nc(-c3ccncc3)ccc2c1,u,-12.9%,35.2%[activator],-0.8%,0.0%,-23.2%,-7.4%,-11.5%
CCCNC(=O)c1oc2ccc3c(c2c1C)C=CC(C)(C)O3,-6.7%,u,33.0%[activator],x,x,-12.0%,0.3%,-3.7%
Cc1cccc(C)c1NC(=O)c1ccc2c(c1)N(Cc1cccc(Cl)c1)C(=O)c1ccccc1S2=O (stereo not drawn),u,u,-13.6%,-1.5%,-23.3%,x,x,x
CCCCN(C(=O)c1ccc(Br)o1)C1CCS(=O)(=O)C1 (stereo not drawn),-1.8%,-23.4%,-5.0%,x,x,0.4%,1.9%,x
COc1ccc(C(=O)/C=C/c2cn(CC(O)CN3CCc4ccccc43)c3ccccc23)cc1OC (stereo not drawn),u,u,u,-4.6%,-25.7%,x,x,x
O=C(CSc1ncc(-c2ccccc2)n1-c1ccccc1)NCc1ccco1,6.8%,-19.7%,x,-7.2%,-8.7%,2.7%,-13.1%,-7.2%[9.22 µM]
CCOC(=O)c1ccccc1NC(=O)n1ncc2cc(Cl)ccc21,6.2%[46.1 µM],7.5%[46.1 µM],6.0%,-7.3%,-10.5%,x,x,x
Cc1c(NC(=O)OCc2ccccc2)c(=O)n(-c2ccccc2)n1C,x,x,-12.4%,4.1%,u,-5.0%,-6.2%,3.6%
O=C(Nc1ncc(Cc2ccc(F)cc2)s1)c1ccc2c(c1)CC(c1ccccc1)OC2=O (stereo not drawn),u,7.6%[46.1 µM],0.0%,-0.1%,-17.6%,x,x,x
CCn1c2nc(SCCN3CCOCC3)nnc2c2cc(C)cc(C)c21,x,x,-18.9%,x,x,-16.1%,-0.5%,-3.7%
O=C(O)c1ccc(-c2cccc([N+](=O)[O-])c2)o1,x,x,-4.6%,x,x,-13.9%,3.5%,1.8%

# The list goes on.
SMILES,LASV entry inh,MARV entry inh,2A StopGo,Cruzain Triton,Cruzain noTriton,RE007 growth inh,SARS PLpro yeast,NS1 function inh
CNC(=S)NCC(O)c1ccc([N+](=O)[O-])cc1 (stereo not drawn),x,2.4%[46.1 µM],1.3%,x,x,-6.0%,-2.0%,x
CC1CCCCN1S(=O)(=O)c1ccc2[nH]c(=O)cc(C(=O)NCCc3ccc(Cl)cc3)c2c1 (stereo not drawn),12.7%[46.1 µM],x,-5.0%,0.8%,-0.1%,x,x,x
COCc1cc(C2C(C(=O)c3ccco3)=C(O)C(=O)N2CCOCCO)ccc1O (stereo not drawn),2.4%,11.4%,-9.6%,-2.7%,0.5%,21.3%,2.82µM*,-8.0%
Cc1cc(C)nc(NC(=O)CSc2ccccn2)n1,24.7%,-0.7%,0.0%,-1.4%,4.4%,0.1%,u,2.9%
O=C(N/N=C/c1c(Cl)cccc1Cl)c1n[nH]c2c1CCCC2,u,-42.9%,73.3%[activator],-6.8%,7.8%,-2.6%,-4.5%,u
COc1ccc(CC(=O)O/N=C(\N)Cc2ccc([N+](=O)[O-])cc2)cc1,8.8%,24.1%,-18.0%,x,x,-17.9%,-0.6%,-46.8%
CCOc1ccc(NC2c3ccccc3C(=O)N2Cc2ccco2)cc1 (stereo not drawn),u,u,u,-5.2%,10.5%,21.8%,-17.1%,-20.7%
CN1C(=O)C(O)(CC(=O)/C=C/C=C/c2ccccc2)c2ccccc21 (stereo not drawn),u,4.4%,-18.1%,-18.1%,-5.7%,0.7%,0.0%,1.1%
CN1C(=O)C(=Cc2ccccc2OCc2ccc(C(=O)O)cc2)C(=O)N(C)C1=O,14.4%[46.1 µM],8.5%[46.1 µM],10.0%,x,x,-9.0%,0.0%,2.8%
COc1ccc2c(c1)CCc1c(C(=O)Nc3cc(OC)c(Cl)cc3OC)noc1-2,11.9%[46.1 µM],6.7%[46.1 µM],-10.1%,-2.3%,-11.3%,x,x,x
O=C(O)c1c(NC(=O)N2CCCC2)sc2c1CCCC2,0.5%[46.1 µM],u,-7.7%,x,x,-22.7%,-10.8%,-65.8%
O=C1OCc2cc(NC(=O)C3COc4ccccc4O3)ccc21 (stereo not drawn),12.7%,-1.3%,19.6%,1.6%,-5.2%,-16.0%,2.8%,u
COC(=O)Nc1nncs1,x,x,-10.2%,x,x,-6.3%,-1.3%,-0.6%
